Rce1 inh – yeast Rce1p protease inhibitors, primary screen, biochemical, fluorescence, cell-free homogeneous. AID 2563, 2010. calls only. CAAX prenyl protease 2 (Saccharomyces cerevisiae (strain ATCC 204508 / S288c)), Q03530. 290,000 tested, 0.27% active. yeast membranes, quenched prenylated peptide cleavage fluorescence;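 active = fall in fluorescence gain of 50% or more versus controls, with final raw signal at or below 3038400; inconclusive = same 50% fall but final raw signal above 3038400; inactive = fall in fluorescence gain under 50%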;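 also: plate controls were neutral control wells for no effect and wells lacking membranes for full effect; tested at 10 µM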
HIV Env fusion – inhibitors of HIV-1 Env-driven cell-cell fusion, primary screen, HeLa-JRFL effector, CEM21 target cells, luciferase. inhibition, % at 12.3 µM. 360,000 tested, 1.1% active. AID 651610, 2012;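 active = mean replicate inhibition score of at least 50 and every replicate individually at or above 50; inconclusive = only one of the two criteria met; inactive = mean below 50 and not all replicates reaching 50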;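 also: 0% = plate neutral controls and 100% = maraviroc near 300 nM; one replicate is shown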
MT1-MMP act inh – blockers of MT1-MMP proenzyme processing, primary screen, HT1080 RFP-PRO-GFP cells, GFP/RFP fluorescence; GFP/RFP ratio fluorescence, overnight; percent of plate control window, DMSO zero; AID 651647, 2012; GFP/RFP ratio change, % at 20 µM; 360,000 tested, 0.061% active;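 active = GFP/RFP ratio change of at least 30% with cell ATP level not reduced by more than half and red fluorescence within 50% of control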; also: strong numbers were not always called active
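Assay system: HT1080 RFP-PRO-GFP cells | Dosing: 20 µM single dose, 1% DMSO | Incubation: Cells overnight before dosing, compound overnight, 37 °C, 5% CO2 | Evaluation: GFP/RFP fluorescence ratio | Control set: DMSO-only wells and HT1080 RFP-L50D-GFP cell wells as references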
eIF4H FP inh – human eIF4H binding inhibitors, primary screen, translation initiation inhibitor project, biochemical, uHTS, fluorescence polarization; eIF4H fluorescence polarization binding assay; 290,000 tested, 0.94% active; inhibition, % at 35 µM; AID 2012, 2009;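 active = 50% or more with normal probe brightness, or confirmed in later tests; inconclusive = above 50% with abnormal brightness, or retests that disagree; inactive = below 50% or failed in later tests; about a fifth of its hits are not listed in these tables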;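 also: calls also rest on retests at 20 µM and on dose response follow-up; 0% = protein and probe with vehicle and 100% = probe without protein; strong numbers were not always called active; many hits fall short of the cut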
Yeast UUG start – modulators of yeast start codon fidelity, primary screen, whole organism, S. cerevisiae, single point, plate reader; S. cerevisiae UUG-firefly luciferase reporter, luminescence/redox ratio; activity score, % at 18.7 µM; 350,000 tested, 0.13% active; AID 602363, 2012;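 active = replicate mean at a twofold rise or more, about +100% in these data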;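 also: firefly luciferase made from a UUG start codon reports start codon fidelity; reporter light over untreated wells divided by growth signal over untreated wells; some hits fall short of that in this replicate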
PABP FP inh – PABP poly(A) RNA binding inhibitors, primary screen, biochemical, fluorescence polarization, uHTS; inhibition, % at 35 µM; Polyadenylate-binding protein 1 (Homo sapiens), P11940; AID 2014, 2009; 290,000 tested, 1% active;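 active = 50% or more with normal probe brightness, or confirmed in later tests; inconclusive = above 50% with abnormal brightness, or retests that disagree; inactive = below 50% or failed in later tests; about a fifth of its hits are not listed in these tables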;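 also: calls also rest on retests at 20 µM and on dose response follow-up; controls were probe without protein and protein plus probe with vehicle; some compounds called inactive have numbers as strong as hits; many hits fall short of the cut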
Target sequence (P11940 whole entry, looked up): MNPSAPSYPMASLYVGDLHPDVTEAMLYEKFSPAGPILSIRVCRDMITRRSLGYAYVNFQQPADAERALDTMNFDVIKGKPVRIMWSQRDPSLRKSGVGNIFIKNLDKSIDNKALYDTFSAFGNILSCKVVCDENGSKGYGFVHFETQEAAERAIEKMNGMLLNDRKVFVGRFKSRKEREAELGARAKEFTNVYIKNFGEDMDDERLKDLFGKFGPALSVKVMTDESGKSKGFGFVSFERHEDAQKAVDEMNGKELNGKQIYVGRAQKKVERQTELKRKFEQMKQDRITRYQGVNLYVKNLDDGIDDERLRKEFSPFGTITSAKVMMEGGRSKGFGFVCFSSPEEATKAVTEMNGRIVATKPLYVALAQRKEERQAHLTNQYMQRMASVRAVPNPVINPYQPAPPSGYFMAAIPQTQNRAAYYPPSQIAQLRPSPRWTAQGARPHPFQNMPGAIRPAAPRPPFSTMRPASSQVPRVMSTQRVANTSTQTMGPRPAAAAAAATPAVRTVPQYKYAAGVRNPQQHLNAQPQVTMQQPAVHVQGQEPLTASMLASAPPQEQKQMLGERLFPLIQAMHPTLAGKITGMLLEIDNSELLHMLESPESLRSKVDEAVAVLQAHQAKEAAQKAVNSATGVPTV
CSC inhib – cancer stem cell viability inhibitors, primary screen, luminescence | cancer stem cell-like cells viability | inhibition, % at 7.5 µM | 300,000 tested, 1.1% active;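 active = mean at 75% or more and at least half the replicates too; inconclusive = mean and replicates disagree; tested in HMLE shEcad cells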;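 also: 0% = median of negative and 100% = median of positive control wells; the first replicate is given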
MT1-MMP act inh RFP – further read-out of MT1-MMP act inh, marked with its call; RFP signal change, %; measured here: RFP expression control read;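 0 = vehicle wells; hits needed this value within 50% of zero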
* hit, by the source's call; i = inactive; ? = inconclusive; nt = no result given.

SMILES | Rce1 inh | HIV Env fusion | MT1-MMP act inh | MT1-MMP act inh RFP | eIF4H FP inh | Yeast UUG start | PABP FP inh | CSC inhib
Cc1ccc(S(=O)(=O)N2C[C@H]3N(C(=O)OC(C)C)N(C(=O)OC(C)C)C[C@H](OC(=O)NC4CCCC4)[C@@]3(O)C2)cc1 | nt | -211 | 3 | -1 | nt | -7 | nt | nt
Cc1ccccc1CNC(=O)C(=O)NCCC1CCCCN1S(=O)(=O)c1cccs1 (stereo unspecified) | i | 9 | 2 | -1 | nt | nt | nt | 3
N#C/C(=C1\C(=O)Nc2c(Cl)cc(Cl)cc21)c1nnc2n1CCCCC2 | nt | -52 | 0 | 9 | -6 | nt | -1 | -2
O=C(CCl)Nc1ccccc1C(=O)c1ccccc1 | i | 4 | -5 | -7 | 1 | nt | 5 | 4
O=C(C[C@@H]1C/C=C\CCC(=O)OC[C@H](Cc2ccccc2)NC1=O)N[C@@H](CO)Cc1ccccc1 | nt | 6 | 1 | 3 | nt | 0 | nt | -11
CCCNC(=O)C1(C)CCCN(C(=O)c2cccc(C(F)(F)F)c2)C1 (stereo unspecified) | nt | -59 | -2 | 0 | nt | -24 | nt | nt
CCCCOP(=O)(c1ccc(N(C)C)cc1)C(O)c1ccc(OC)c(OC)c1 (stereo unspecified) | i | -4 | 5 | 5 | -3 | nt | -6 | -10
Cc1ccc(S(=O)(=O)N2CCN(C(=O)c3ccc(-n4cncn4)c([N+](=O)[O-])c3)CC2)cc1 | i | -17 | -4 | 2 | nt | 4 | nt | 1
O=C(Nc1nc2ccccc2n1CCN1CCOCC1)c1ccc(COc2ccccc2Br)o1 | nt | 1 | 3 | -5 | 4 | nt | -2 | 28
Clc1cccc(-c2ccc3ncnc(NCc4cccnc4)c3c2)c1 | nt | 10 | 6 | -3 | nt | -15 | nt | nt
NS(=O)(=O)c1cccc(NC(=O)CSc2nnnn2-c2ccccc2)c1 | i | 21 | -1 | -4 | -14 | -15 | -3 | 2
CN(CC(=O)NCC(=O)Nc1ccc(F)c(F)c1F)C1CCS(=O)(=O)C1 (stereo unspecified) | nt | nt | -4 | 6 | nt | -18 | nt | -12
O=C(CNC(=O)c1ccccc1F)NC1CC1 | i | -35 | -3 | 3 | -1 | 0 | 2 | -17
Cc1ccc(NS(=O)(=O)c2ccc3c(c2)NC(=O)CCS3)c(C)c1 | i | 11 | -3 | -1 | 4 | 3 | 6 | 10
Cc1cc(OCCCCn2ccnc2)cc(C)c1Cl | nt | 3 | 0 | -1 | 2 | nt | -22 | -14
O=C(NCCCN1CCCC1=O)C1CCC(CNS(=O)(=O)c2ccc(Cl)cc2)CC1 (stereo unspecified) | i | 0 | -4 | 1 | -4 | 2 | 15 | 8
O=C(CCC(=O)Nc1ccc(F)cc1)N/N=C/c1cccs1 | i | -20 | -1 | 3 | 4 | -7 | 11 | -8
COc1cc(CN2CCC(CO)(Cc3cccc(C(F)(F)F)c3)CC2)ccc1F | i | 21 | 3 | 8 | -2 | nt | 3 | 44
Cc1ccc(NC(=O)c2cc3ccccc3oc2=N)cc1 | i | -34 | -2 | 1 | 0 | -16 | -11 | -2
O=C(CNC(=O)c1cccc(Cl)c1)N/N=C/C=C/c1ccccc1 | i | nt | -1 | -3 | 0 | nt | 4 | 0
CC(=O)Nc1ccc(S(=O)(=O)NC(C(=O)O)C(C)C)cc1 (stereo unspecified) | i | nt | 4 | -1 | nt | -12 | nt | -7
c1ccc(Cn2nc(-c3ccccc3)nc2-c2ccccc2)cc1 | i | -7 | 0 | -2 | 2 | -4 | -4 | 9
CC(C)N1C/C(=C/c2cccnc2)C(=O)/C(=C/c2cccnc2)C1 | nt | -61 | -5 | -7 | -13 | -15 | -21 | nt
NS(=O)(=O)c1ccc(CNS(=O)(=O)c2ccc3ccccc3c2)cc1 | i | 20 | 1 | -1 | -6 | -12 | -13 | -6
O=C(NCCN1CCOCC1)C1CCN(S(=O)(=O)N2CCCC2)CC1 | i | -1 | 1 | 5 | 3 | nt | -11 | -10
COc1ccc(N=C2C(=O)Nc3ccccc32)cc1 | i | -22 | -1 | 8 | 6 | -12 | 2 | 7
COc1ccc(-c2cc(C(F)(F)F)nc(SCC(=O)NCc3cccs3)n2)cc1OC | i | -13 | 3 | -5 | 1 | nt | -3 | -1
COc1ccc(-c2ccc3c(c2)C2CC3CCN2C(=O)C(C)(C)C)cc1 (stereo unspecified) | nt | -42 | -1 | -2 | nt | -29 | nt | nt
CCc1cccc(C)c1NC(=O)CCCSc1nc2ccccc2s1 | i | nt | 0 | -2 | -6 | -12 | -6 | 1
Cc1cc(NC(=O)c2cc(-c3ccccc3)on2)no1 | i | -46 | 6 | 4 | -9 | -7 | 9 | 6
CN(C)c1ccc(Nc2c3c4c(cccc4n(C)c2=O)C(=O)c2ccccc2-3)cc1 | i | 11 | -62 | -25 | ? | -11 | -2 | 38
CC(=O)Nc1cnc(/C=C\CCCO)cn1 | nt | 6 | 6 | 4 | nt | -7 | nt | nt
Cc1cccc(-n2cnc3cc(C(=O)NCC4CCCO4)ccc32)c1 (stereo unspecified) | nt | -18 | -2 | -6 | nt | 3 | nt | nt
Nc1nc(SCc2ccccc2Cl)ns1 | i | -41 | 1 | 0 | -5 | -7 | -5 | -11
NS(=O)(=O)c1cccc(NC(=O)CSc2n[nH]c(-c3cccs3)n2)c1 | nt | -5 | 1 | 3 | nt | -7 | nt | nt
Fc1ccc(Br)cc1/C=N/n1cnnc1 | i | nt | -2 | 0 | 2 | -22 | -2 | nt
CCCCCCN(C(=O)CCCCCN1C(=O)NC(c2ccc([N+](=O)[O-])cc2)C(C(=O)OCc2ccccc2)=C1C)C(C(=O)NCCCC)C1CCCCC1 (stereo unspecified) | nt | 25 | -3 | -7 | nt | -25 | nt | nt
O=C(O)CSCCn1cccn1 | i | -33 | 0 | -1 | -7 | -4 | 3 | 18
O=C(NCCc1ccccc1)C(=O)NCC1OCCCN1S(=O)(=O)c1cccs1 (stereo unspecified) | i | 5 | -2 | -3 | -4 | -8 | 7 | -8
Cc1ccc(F)cc1C(=O)N1CCCC1(C)C(=O)NCC(C)C (stereo unspecified) | nt | 1 | 1 | 2 | nt | -7 | nt | nt
CCOc1ccc(NC(=O)C2CCN(C(=O)C3CC(=O)N(c4ccc(C)cc4)C3)CC2)cc1 (stereo unspecified) | i | -5 | 0 | -1 | -6 | -10 | -4 | 3
O=C(c1cc(COc2ccc(F)cc2F)on1)N1C[C@H]2CC[C@H]1C2 | i | -9 | 1 | -4 | -11 | -6 | 0 | 10
CC(C)(C)c1ccc(OCCCNC2CCCC2)cc1 | i | 13 | 3 | 4 | 16 | nt | 1 | 63
CCOC(=O)c1ccccc1NC(=O)Nc1ccc(OC)c(OC)c1 | i | -2 | 1 | 4 | 6 | 1 | 3 | -4
Nc1ccc2oc(C3CCCCC3)nc2c1 | i | -8 | 2 | 2 | -5 | nt | 6 | 9
CN1CCC(=O)N([C@H](COc2ccccc2)Cc2ccccc2)CC1 | i | -11 | 0 | 2 | 18 | -4 | 0 | -4
C=CCn1c(SCC(=O)Nc2nc3ccccc3s2)nnc1-c1ccccc1O | i | 5 | 1 | -9 | -2 | -23 | 2 | -9
COc1ccc(-c2[nH]ncc2/C=N\NC(=O)c2ccc(Br)o2)cc1OC | i | -231 | 2 | -1 | 5 | -4 | 0 | nt
Cc1cccc(C)c1NC(=S)N1CCCCCC1 | i | -2 | 0 | -1 | -5 | 1 | -5 | nt
O=C(Nc1ccc2c(c1)OCO2)c1cnc2n(c1=O)CCS2 | i | nt | 14 | 3 | 7 | -10 | -5 | -5
O=S(=O)(/N=C(/Nc1ccccc1F)c1ccccc1)c1ccccc1 | i | nt | -1 | 0 | -3 | -15 | -3 | -7
C=CCNC(=S)N/N=C/c1ccc(C(F)(F)F)cc1 | i | 45 | -6 | -23 | -1 | nt | 2 | -1
OCCC1CN(Cc2cccn2-c2ccccn2)CCN1C1CCCC1 (stereo unspecified) | i | -2 | -2 | -2 | 1 | -17 | -1 | 6
O=S1(=O)NC[C@]23C[C@H](c4ccc(F)cc4)[C@@H](C[C@@H]21)O3 | i | -2 | -1 | 3 | 3 | -23 | -1 | -19
Cc1cc(C)c(NC(=S)NC(NC(=O)c2ccccc2)C(Cl)(Cl)Cl)c(C)c1 (stereo unspecified) | i | -109 | -11 | -11 | -14 | -19 | -9 | 4
CCn1c(N)c(C(=O)NCc2ccc3c(c2)OCO3)sc1=S | i | nt | 8 | 4 | -11 | -18 | -10 | nt
O=c1[nH]c(SCc2n[nH]c(=S)n2-c2ccccc2)nc2sc3c(c12)CCC3 | i | -45 | 5 | 4 | 8 | -22 | 10 | -5
C(=C\n1nnc2ccccc21)/c1ccc[nH]1 | i | -4 | -5 | 7 | nt | -9 | nt | -1
COc1ccc(S(=O)(=O)Nc2ccc(-n3cnnn3)cc2)cc1[N+](=O)[O-] | nt | nt | 3 | 2 | nt | -11 | nt | -12
C=CCn1c(=O)c(C(C)=O)cn(N(C)c2ncc(C(F)(F)F)cc2Cl)c1=O | i | 13 | 3 | 3 | 6 | nt | -1 | -14

Following part
SMILES | Rce1 inh | HIV Env fusion | MT1-MMP act inh | MT1-MMP act inh RFP | eIF4H FP inh | Yeast UUG start | PABP FP inh | CSC inhib
O=C(NCC1CCCO1)c1cccc(N2CCCC2=O)c1 (stereo unspecified) | i | -23 | -1 | 1 | -3 | -25 | 9 | -3
O=C(COC(=O)c1cc([N+](=O)[O-])ccc1N1CCOCC1)NCc1ccc(Cl)cc1Cl | i | 30 | 2 | 0 | -3 | -10 | -23 | -9
O=C(CCC(=O)NC12CC3CC(CC(C3)C1)C2)NC1CCCCC1 | i | 5 | -1 | -2 | 1 | 11 | -8 | -15
COc1ccccc1CN(C)C(=O)C(c1ccccc1)c1ccccc1 | i | 19 | -5 | -4 | 2 | -3 | 8 | 30
O=C(NCCCn1ccnc1)C(=O)Nc1ccccc1 | i | 0 | 5 | -1 | -3 | nt | 0 | -6
O=C(Cc1ccc(F)cc1)N1CCOCC1 | i | 15 | -3 | -1 | -14 | -17 | -5 | -11
O=C(CSCc1ccc(F)cc1)Nc1ccc(N2CCOCC2)cc1N1CCOCC1 | nt | nt | 5 | 3 | nt | 16 | nt | 4
CC(=O)C1=C(O)C(=O)N(CCC(=O)O)C1c1cccc(F)c1 (stereo unspecified) | i | nt | 4 | 6 | -9 | nt | -8 | 6
COc1ccccc1-n1cnc2sc(-c3ccccc3)cc2c1=O | i | nt | 1 | -8 | -2 | nt | -7 | 8
O=C(c1cccs1)N1CCN(C2CCN(Cc3ccccc3)CC2)CC1 | i | nt | -3 | -1 | -3 | -17 | -7 | -5
Cc1ccc(C2=CC(=O)CC(C)(C)C2)cc1 | nt | -10 | 1 | 4 | nt | -19 | nt | 17
CCCN(CCC)CCCNC(=O)c1cn(CC)c2ccc(S(=O)(=O)N(C)C3CCCCC3)cc2c1=O | i | -3 | -4 | -1 | 0 | -8 | 6 | -11
